Compound activity: PubChem BioAssay, several laboratories
RecA splice inh = Mtb RecA intein splicing inhibitors, primary screen, biochemical, fluorescence, HTS; Protein RecA (Mycobacterium tuberculosis (strain ATCC 25618 / H37Rv)), P9WHJ3; cell-free RecA intein splicing; inhibition, %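 (about 9 µM by stock and volumes)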; hit rate 0.75% among 290,000; in the data active = inhibition above about 30%; inconclusive = no clear call, values can overlap the other calls;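 note: 0% = vehicle wells and 100% = reference inhibitor control wells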
Target sequence (P9WHJ3 whole entry, looked up, canonical isoform): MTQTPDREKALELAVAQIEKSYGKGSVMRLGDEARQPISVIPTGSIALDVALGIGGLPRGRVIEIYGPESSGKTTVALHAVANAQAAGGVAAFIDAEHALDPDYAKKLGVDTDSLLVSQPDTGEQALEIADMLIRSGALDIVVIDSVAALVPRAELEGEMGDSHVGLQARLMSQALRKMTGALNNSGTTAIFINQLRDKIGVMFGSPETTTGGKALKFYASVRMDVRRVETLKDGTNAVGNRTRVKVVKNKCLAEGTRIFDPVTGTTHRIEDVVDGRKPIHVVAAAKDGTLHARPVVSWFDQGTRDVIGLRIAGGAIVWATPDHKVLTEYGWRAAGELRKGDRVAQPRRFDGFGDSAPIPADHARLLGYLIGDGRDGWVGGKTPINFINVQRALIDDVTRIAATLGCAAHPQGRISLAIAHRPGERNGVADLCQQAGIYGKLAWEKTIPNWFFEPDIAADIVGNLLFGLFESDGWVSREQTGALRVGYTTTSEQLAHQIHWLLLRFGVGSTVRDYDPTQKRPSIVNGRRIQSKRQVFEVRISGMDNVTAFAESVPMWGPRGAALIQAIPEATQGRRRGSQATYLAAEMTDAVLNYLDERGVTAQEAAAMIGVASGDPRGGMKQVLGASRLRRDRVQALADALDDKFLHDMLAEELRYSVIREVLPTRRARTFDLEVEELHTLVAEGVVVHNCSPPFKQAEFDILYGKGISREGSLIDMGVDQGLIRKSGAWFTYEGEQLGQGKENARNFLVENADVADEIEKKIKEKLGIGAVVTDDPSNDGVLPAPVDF
Mtb growth = M. tuberculosis H37Rv growth inhibitors, H37Rv strain (AID 1626) | M. tuberculosis H37Rv growth inhibition; higher % means a stronger effect | one-dose inhibition, % at 10 µM; IC50 in µM for titrated hits | hit rate 0.95% among 220,000;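 active = confirmed in a dose series; inconclusive = inhibition above 80% but not taken into the dose series; inactive = below 80% or under 30% at every dose of the series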;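 note: bacteria incubated seven days before Alamar blue readout; 0% = bacteria only wells and 100% = bacteria with antibiotic wells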
YopH PTP inh = YopH tyrosine phosphatase inhibitors, primary screen, biochemical, fluorescence Ex485/Em525. YopH tyrosine phosphatase [Yersinia enterocolitica]. inhibition, %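 (about 10 µM by stock and volumes)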. hit rate 0.16% among 140,000. AID 898, 2007;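 active = inhibition of 50% or more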;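 note: controls were vehicle for no effect and minimum signal wells for full effect; inactives centre near -20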
Arbovirus inh = antivirals against arbovirus infection, primary screen, cell-based, full library, 10K replicate subset; inhibition, % at 10 µM; arbovirus infection cell-based antiviral screen; hit rate 0.37% among 200,000; AID 1251, 2008;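 active = inhibition from about 30%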;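 note: bluetongue infection of BSR cells; cell survival read as ATP light after 72 h; 0% = infected wells without compound and 100% = uninfected wells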
Mtb bLac sens = beta-lactam sensitization of Mtb H37Rv, H37Rv | AID 434955, 2010 | inhibition, % at 25 µM | hit rate 0.27% among 330,000 | M. tuberculosis H37Rv growth with meropenem, percent inhibition; hits of this screen are not shown here;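 active = about 74% or more and at least 40 points above the plate without the antibiotic, then above 30% in a dose series; inconclusive = first-round hits that could not be retested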;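 note: growth measured after seven days incubation then overnight dye step; 0% = bacteria only wells and 100% = bacteria with antibiotic; twin plates without the antibiotic show which effects depend on it; some results filed as inactive read as strong as hits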
Arbovirus inh repeat = second read-out of Arbovirus inh, no call of its own (marks repeat the call); inhibition, %; measured here: 10K subset replicate screen; many hits read low in the repeat;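 first of two repeat runs on a subset; 0% = infected and 100% = uninfected wells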
Numbers without * were called inactive; i = inactive; ? = inconclusive; . = no result given; & = joins results of further samples.

SMILES	RecA splice inh	Mtb growth	YopH PTP inh	Arbovirus inh	Mtb bLac sens	others
COc1ccc(NS(=O)(=O)c2cccc(NC(=O)NCCCl)c2)cc1	0.0	9.4%	.	10.7	-2.7
COC(=O)c1cccc(NC(=S)Nc2ccc(Cl)c(Cl)c2)c1	14.4	.	.	.	91.2
CC(=NCCCN1CCCCC1)c1c(O)n(Cc2ccccc2)c(=O)[nH]c1=O	2.0	-9.8%	-37.7	3.5	3.0
Cc1cc(NC(=O)CSc2nnc(-c3ccoc3C)o2)no1	-5.6	4.0%	-17.6	-1.9	51.8
c1ccc(OCc2ccc(CCCN3CCOCC3)cc2)cc1	2.1	.	.	.	0.8
CSc1cccc(NC(=O)CNC(=O)C2CCCCC2)c1	1.3	.	.	.	-12.7
CC(C)Cc1ccc(CN2CCCC(NC(=O)c3cccc(-n4cnnc4)c3)C2)cc1 (centres undefined)	1.5	.	.	.	?
Cc1c(CC(=O)O)c(=O)oc2c(C)c(OCc3ccc(F)cc3F)ccc12	1.4	.	.	.	-3.5
CCCNc1nc2nc3ccccn3c(=O)c2cc1C(=O)NCCN1CCOCC1	i	.	.	.	5.6
Nc1ccccc1C(=O)OCc1ccc([N+](=O)[O-])cc1	1.4	13.1%	.	5.6	2.6
COc1ccc(/C=C/C(=O)c2ccc(NC3=NCCCS3)cc2)cc1OC	1.0	8.5%	.	-38.6	81.1
CCOC(=O)COc1cc(Br)c(/C=N/Nc2ccccc2)cc1OC	-2.8	.	-9.8	-34.1	-1.7
CCN1CCN(C(c2ccc(F)cc2)c2nnnn2Cc2cccs2)CC1 (centres undefined)	1.0	-3.9%	-36.8	1.8	-1.1
Cc1ccc(C)c(OCC(=O)Nn2c(C)nc3ccccc3c2=O)c1	-0.5	-13.8%	-23.3	-6.5	-9.8
COCC(=O)NC1CC(C)(C)Cc2c1cnn2-c1ccc(F)cc1 (centres undefined)	0.3	.	.	.	-4.2
Cc1ccc([N+](=O)[O-])cc1NC(=O)c1ccccc1	1.6	2.7%	.	-1.4	-7.2
CCC1(CC)Cc2ccccc2C(CC(=O)N2CCOCC2)=N1	8.8	-4.2%	-5.3	4.4	-0.6
Cc1ccnc(-n2c(C)cc(/C=N/NC(=O)COc3cccc4cccnc34)c2C)c1	-2.0	-6.8%	.	.	-11.7
O=C(CSc1nc2ccccc2c(=O)n1-c1ccccc1)NCc1ccco1	-0.3	-5.6%	-56.2	-2.1	-1.0
O=C(N/N=C/c1c[nH]c2ccccc12)c1ccn(Cc2ccc(Cl)cc2Cl)n1	-1.3	.	-32.7	-28.9	-7.0
CCC(C)C1C(C#N)=C(N)Oc2n[nH]c(C)c21 (centres undefined)	0.7	9.4%	-51.1	-1.6	-5.7	Arbovirus inh repeat=-8.4
O=C(C1CCN(S(=O)(=O)c2ccccc2F)CC1)N1CCc2ccccc2C1	1.7	3.2%	.	-2.1	0.4
Cc1ccc(NC(=O)NC2CC(=O)N(c3ccc4c(c3)OCCO4)C2)cc1F (centres undefined)	-0.8	.	.	.	-9.4
COc1ccc(C2=NOC(C(=O)N(C)Cc3ccccc3)C2)cc1 (centres undefined)	.	-10.9%	.	-0.6	6.6
CC1=C(N2CCCCC2)CCC1=O	-1.7	0.1%	.	.	-4.0
O=C(c1ccc(Cl)s1)N1CCN(c2ccccc2)CC1	2.4	-7.4%	-31.1	1.5	0.3
Cc1occc(=O)c1OC(=O)Nc1ccccc1	0.5	-6.8%	-35.9	5.3	-10.2
O=C(NNC(=O)C12CC3CC(CC(C3)C1)C2)c1cccc([N+](=O)[O-])c1	-0.3	.	.	.	-5.7
COc1cccc(COc2ccc3c(C)cc(=O)oc3c2)c1	4.9	.	.	.	5.8
CCOc1ccc(NC(=S)N=Nc2c(O)[nH]c3ccccc23)cc1	26.3	?	.	-8.2	4.0
COc1ccc(OC)c(S(=O)(=O)NCC(c2ccco2)N2CCc3ccccc32)c1 (centres undefined)	8.5	.	.	.	9.7
Cc1noc(C)c1CSc1ncnc2sc(C)c(C)c12	-1.4	0.7%	-34.6	-2.1	25.0
C/C(CC(=O)N1CCN(C=O)CC1)=N\NC(=O)c1cccc([N+](=O)[O-])c1	71.3*	0.2%	.	-5.4	2.7
O=C(Nc1cccnc1)c1ccccc1-c1ccccc1	4.0	4.0%	.	1.3	3.2
Cc1ncc(CSc2nccc(=O)[nH]2)c(CO)c1O	-1.7	.	.	.	1.4
CC(C)c1ccc(-c2nnc(SCC(=O)NC3CC3)n2C)cc1	-0.7	.	.	.	-8.2
COc1ccc(-c2cc(-c3cccs3)c(C#N)c(SCC(=O)NCc3ccco3)n2)cc1	.	0.0%	-21.2	-19.2	1.6
CN(Cc1c(F)cccc1Cl)C(=O)c1cccc(S(=O)(=O)NCc2ccccc2)c1	3.4	.	.	.	5.1
O=C(c1ccc(-c2ccccc2)cc1)C1CCCN(C(=O)c2cncs2)C1 (centres undefined)	0.8	4.9%	.	2.8	23.5
N#Cc1c(SCc2ccc(Cl)cc2)sc(C(=O)c2ccccc2)c1N	2.5	4.7%	-40.0	21.0	-3.5
C1CN(CC2CCN(c3nc4nonc4nc3N3CCSCC3)CC2)CCO1	-4.4	-0.5%	.	0.8	-4.5
CCN(C(=O)COC(=O)CCc1c[nH]c2ccccc12)c1c(N)n(Cc2ccccc2)c(=O)[nH]c1=O	1.1	.	.	.	5.2
O=S(=O)(Nc1ccccc1)c1ccc(-c2csnn2)cc1	1.5	8.8%	.	.	-2.5
O=C(Nc1ccccc1)Nc1nncs1	0.9	-4.0%	-49.3	9.2	-8.7
CCC12CN(C(=O)c3ccc([N+](=O)[O-])cc3)CC(CC)(CN(C(=O)c3ccc([N+](=O)[O-])cc3)C1)C2=O	-5.9	0.3%	.	.	-3.3
CCCCn1c(N)c(N(CCOC)C(=O)CCNC(=O)c2ccc(Br)cc2)c(=O)[nH]c1=O	3.0	.	.	.	-0.5
COc1ccc2nc(NC(=O)c3ccccc3F)sc2c1	-5.5	.	.	.	7.0
C=C(c1ccccc1)c1ccccc1N	-3.0	.	.	.	-5.4
O=C(Nc1c(F)cccc1F)c1ccc(-n2cncn2)nc1	-0.5	2.2%	5.0	-2.2	-4.3
CN(C)c1ccc(/C=C2\CCC/C(=C\c3ccccc3)C2=O)cc1	-1.0	4.8%	-36.0	-6.1	3.4
Cn1cnnc1SCC(=O)Nc1ccc(Oc2ccccc2)cc1	-0.1	.	.	.	-4.4
COc1ccc(OC)c(-c2cc(C(=O)N/N=C/c3ccc(F)cc3)c3ccccc3n2)c1	-3.4	.	.	.	3.5
CCN(CC)CCCNC(=O)Cn1cnc2sc(C)c(S(=O)(=O)N3CCN(c4ncccn4)CC3)c2c1=O	-1.7	3.4%	.	2.7	-2.5
O=C(CNC(=O)c1ccccc1)NCc1nc2ccccc2[nH]1	0.5	.	.	.	-24.1
COc1cc(/C=C2\C(=O)NC(=O)N(c3ccccc3)C2=O)cc(OC)c1OC	1.6	-3.7%	10.6	4.5	-11.0
COc1ccc(-c2nc(CS(=O)(=O)CC(=O)NCc3ccccc3OC)c(C)o2)cc1	2.2	.	.	.	-0.8
Cc1ccc(NC(NC(=O)c2cccs2)C(Cl)(Cl)Cl)cc1 (centres undefined)	11.0	21.0%	-32.4	-7.2	99.0
Nc1c(C(=O)Nc2nccs2)sc2nc(-c3cccs3)cc(C(F)(F)F)c12	-3.8	.	-22.1	3.1	-4.8
CCC(=O)Nc1ccc(NC(=S)NC(=O)/C=C/c2ccco2)cc1	0.8	.	.	.	6.4
Cc1cnc(NC(=O)CC(C)c2ccccc2)s1 (centres undefined)	-2.8	.	.	.	7.5
Additional structures:
SMILES	RecA splice inh	Mtb growth	YopH PTP inh	Arbovirus inh	Mtb bLac sens	others
COc1ccc([C@@H]2[C@@H]3C(=O)N(C(C)(C)C)C(=O)[C@@H]3[C@]3(C)C(=O)N(c4ccc(C(F)(F)F)cc4)C(=O)N23)cc1	1.1	.	.	.	9.1
CCC(C)(C)NC(=O)C(c1ccccc1)N(C(=O)c1csnn1)C1CC1 (centres undefined)	1.0	5.4%	1.6	-1.0	-8.4
CCOC(=O)/C(=N\Nc1ccccc1)S(=O)(=O)c1ccccc1	2.0	3.1%	-2.4	-6.3	-9.7
CCOc1cc(C(=S)N2CCCC2)ccc1OC(=O)Cc1ccc(F)cc1	2.3	3.6%	.	0.4	0.1
CCCCSc1nnc(-c2ccc(NC(=O)CC)cc2)n1C	2.7	12.1%	-26.1	-1.5	2.8
Cc1ccc(C(=O)Nc2ccc(OCc3ccccc3)cc2)s1	-1.7	.	.	.	3.1
Cc1ccc(CC(=O)Nc2nc3c(s2)CCCC3)cc1	5.5	-0.5%	-4.6	16.9	84.3
COc1ccccc1NC(=O)CCSc1nnc(-c2ccc(O)cc2)o1	0.0	-0.3%	.	2.6	38.5
O=C(O)c1cccc(-c2ccc3c(c2)OCO3)c1	1.0	.	.	.	2.4
Cc1ccc(-n2nc3c(=O)n(CC(=O)NCc4ccc(C)o4)nc(C)c3c2C)cc1	0.5	.	.	.	1.5
CCn1cc(C(=O)NCC2CCCO2)c(=O)c2cc(S(=O)(=O)N3CCCCC3)ccc21 (centres undefined)	-2.1	-0.8%	-43.5	2.2	7.2
CCCCN1C(=O)C(O)(CC(=O)c2c(C)coc2C)c2ccccc21 (centres undefined)	-4.4	3.2%	.	-9.7	8.7
CSc1nc2ccc(Br)cc2[nH]1	-9.0	-10.0%	.	0.8	14.7
c1ccc2[nH]c(-c3ccncc3)nc2c1	.	15.3%&-3.8%	.	0.5	6.1
COc1ccc(C2/C(=C(\O)c3ccc4c(c3)OCCO4)C(=O)C(=O)N2CCCn2ccnc2)cc1 (centres undefined)	4.0	.	.	.	0.5

Structures above with a cyano group:
SMILES	RecA splice inh	Mtb growth	YopH PTP inh	Arbovirus inh	Mtb bLac sens	others
CCC(C)C1C(C#N)=C(N)Oc2n[nH]c(C)c21 (centres undefined)	0.7	9.4%	-51.1	-1.6	-5.7	Arbovirus inh repeat=-8.4
COc1ccc(-c2cc(-c3cccs3)c(C#N)c(SCC(=O)NCc3ccco3)n2)cc1	.	0.0%	-21.2	-19.2	1.6
N#Cc1c(SCc2ccc(Cl)cc2)sc(C(=O)c2ccccc2)c1N	2.5	4.7%	-40.0	21.0	-3.5

(next part)
SMILES	RecA splice inh	Mtb growth	YopH PTP inh	Arbovirus inh	Mtb bLac sens	others
O=C1CC(NNc2ccccc2)C(=O)N1c1ccc(N2CCCCC2)cc1 (centres undefined)	.	7.2%	.	-25.1	.
Cc1ccc(C2=NN(C(=O)CNCCO)C(c3cccs3)C2)cc1 (centres undefined)	0.9	.	.	.	-5.0
CCOc1ccc(C(=O)C(C)OC(=O)Cn2cnc3c2c(=O)n(C)c(=O)n3C)cc1 (centres undefined)	0.5	.	.	.	-0.8
COc1cccc(C(O)CC(N)=O)c1 (centres undefined)	9.6	9.6%	-18.3	9.0	-0.2
Cc1csc(NC(=O)c2ccc3c(c2)OCO3)n1	-1.6	.	.	.	0.9
Cc1ccc([C@@H]2[C@@H]3C(=O)N(C)C(=O)[C@@H]3[C@]3(C)C(=O)N(CC4CC4)CC(=O)N23)o1	3.8	.	.	.	-4.0
CC(C)C[C@H](NC(=O)c1[nH]cnc1C(=O)N[C@@H](Cc1ccccc1)C(=O)OC(C)(C)C)C(=O)OC(C)(C)C	1.9	20.5%	.	.	-4.0
Cc1c(C(=O)Nc2ccc(Cc3ccncc3)cc2)cccc1[N+](=O)[O-]	4.5	6.5%	-42.1	-21.3	1.1
O=c1c2ccccc2nc(SCCN2CCOCC2)n1CCc1ccccc1	6.3	1.9%	.	-6.5	1.4
CCCCOC(=O)C1CN(c2ccccc2)N=C1C(=O)OCC (centres undefined)	-2.2	0.8%	-49.4	-4.4	6.6
CC12CN3CCN(C1)CC(C)(C3)C2=NO	6.4	-10.3%	-11.9	6.2	9.6
O=C(NCCC(=O)N1CCC2(CC1)NCCc1[nH]cnc12)c1ccc(F)c(F)c1	0.1	.	.	.	4.5
Fc1cccc(Nc2ncnc3c2cnn3-c2ccccc2)c1	5.2	20.3%	.	-11.1	3.2	Arbovirus inh repeat=22.2
CC(=O)N1c2ccc(S(=O)(=O)NCCC(=O)NC3CCCC(C)C3C)cc2CC1C (centres undefined)	-5.9	.	.	.	-3.7

Random excerpt: two compounds from above, in no set order.
SMILES	RecA splice inh	Mtb growth	YopH PTP inh	Arbovirus inh	Mtb bLac sens	others
Cc1csc(NC(=O)c2ccc3c(c2)OCO3)n1	-1.6	.	.	.	0.9
CCOc1ccc(C(=O)C(C)OC(=O)Cn2cnc3c2c(=O)n(C)c(=O)n3C)cc1 (centres undefined)	0.5	.	.	.	-0.8

The list is partial, so the mix of outcomes need not match the whole.
